PINK1 modulator: A Quantitative High throughput Screen to Identify Chemical Modulators of PINK1 Expression; Potency, µM (doses to about 76.6 µM), inactives show top-dose activation (PINK1 increase), hits mostly activators; actives 0.2% (n = 410,000); PINK1 immunofluorescence, high-content cytometry, 24 h; AID 624263, 2012; active = well fitted activation curve with a large enough effect; inconclusive = small, poorly fitted or top-dose-only effect; inactive = flat fitted curve, though single readings scatter; cell line not stated here;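 note: % of control where 0% means no effect; nearly all actives have a fitted effect of over 65% in size; a mitochondrial uncoupler was the plate control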
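Measures PINK1 amount and localization on or inside mitochondria by immunofluorescence. Stable cells get compounds at 5 concentrations for 24 hours before fixation and staining; CCCP controls included.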
ClpP mod: qHTS Assay for Activators of ClpP. AID 651965, 2013. Potency, µM (titrated, usually from 57.5 µM), inactives show at the top dose activity change, negative = active. actives 1.9% (n = 340,000). ATP-dependent Clp protease proteolytic subunit (Bacillus subtilis (strain 168)), P80244. purified B. subtilis ClpP, FRET peptide cleavage, 20 min; active = well fitted falling curve with a large enough effect; inconclusive = small, poorly fitted or top-dose-only effect; inactive = no such curve, though single readings can be large or run the other way; note: the source files actives as falling curves though it sought activators and does not explain the sign; nearly all actives have a fitted effect of over 65% in size; many hits overshoot -100%
Target sequence (P80244 whole entry, looked up): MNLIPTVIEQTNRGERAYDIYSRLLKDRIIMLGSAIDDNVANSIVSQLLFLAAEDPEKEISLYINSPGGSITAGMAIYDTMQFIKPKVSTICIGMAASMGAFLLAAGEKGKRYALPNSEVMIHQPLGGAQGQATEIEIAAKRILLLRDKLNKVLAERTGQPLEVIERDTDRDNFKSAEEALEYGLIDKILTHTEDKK
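Purified B. subtilis ClpP, 10 microg/mL final in Tris/HCl pH8 with KCl, BSA, glycerol and Tween-20, cleaved an Abz/nitrotyrosine-quenched decapeptide. Fluorescence (ex 320, em 430) was read at 0 and 20 min at room temperature. Delta was normalized to 5.8 microM ADEP and DMSO/no-enzyme controls.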
Active calls of the source: *; ? = inconclusive; & = joins results of further samples. Potency is the fitted concentration of half-maximal effect. An excerpt; the hit share may differ from the screen's.

SMILES | PINK1 modulator | ClpP mod
Cn1ccc2c(OCC(=O)Nc3ccc(OC(F)(F)F)cc3)cccc2c1=O | 2.1% | ?
CCCN1CCN(CCCNC(=O)c2ccc3c(c2)sc2nc(-c4ccc(OCC)cc4)cn23)CC1 | -2.6% | ?
Cc1cccc(C)c1Nc1c(-c2ccccc2F)nc2cccc(C)n12 | -0.8% | 31.6µM*
Nc1ncc(S(=O)(=O)Nc2ccc(F)cc2F)cn1 | -1.1% | -2.9%
CC1CCN(S(=O)(=O)N2CCC(C(=O)NCc3ccccc3Cl)CC2)CC1 | -0.2% | -1.0%
O=C(C1CCN(c2nc3ccccc3[nH]2)CC1)N1CCN(c2ccccc2)CC1 | 0.7% | -0.2%
COc1cccc(C2C(C(=O)Nc3ccccc3OC)=C(C)Nc3nc4ccccc4n32)c1 (stereo not given) | 2.6% | -15.0%
Cc1ccc(-n2c3c(c(=O)[nH]c2=O)C(NC(=O)c2ccccc2F)(C(F)(F)F)C(=O)N3)cc1C (stereo not given) | -0.9% | -0.9%
Cc1ccc(CN2CCN(C3CCN(S(=O)(=O)N(C)C)CC3)C(=O)C2=O)cc1 | 1.2% | -2.8%
COc1ccc(-c2onc(C)c2C)cc1S(=O)(=O)N1c2ccccc2CC1C (stereo not given) | 1.8% | 0.4%
CC(C)(C)c1ccc(C(=O)Nc2ccc(OCc3cc(=O)n4ccsc4n3)cc2)cc1 | 9.1% | ?
COc1ccc(Nc2c3c(nc4ccccc24)CCC3)cc1Cl | ? | -4.3%
COc1ccc(-c2noc(C3CC(=O)N(c4ccccc4)C3)n2)c(OC)c1 (stereo not given) | 0.2% | -0.4%
CCOC(=O)Cn1c(=O)c2c(nc3n2CCN3c2ccc(CC)cc2)n(C)c1=O | 0.1% | -5.9%
COC(=O)C1CCN(c2csc3ccc(C)cc3c2=O)CC1 | 0.5% | -10.9%
Cn1nnnc1SCCNCc1ccc(F)cc1 | -0.8% | 1.6%
COc1ccc(NC(=O)c2cnc(N3CCCC3)nc2)cc1OC | 2.2% | -3.0%
O=C(O)CC1c2ccccc2CCN1C(=O)Nc1cc(Cl)ccc1Cl (stereo not given) | 0.3% | 4.5%
COc1ccc(NC(=O)Cn2c(CCC(=O)O)ccc2-c2ccccc2)cc1Cl | 0.0% | -10.3%
Cc1ccc(S(=O)(=O)c2nnn3c2nc(NCc2ccccc2)c2sccc23)cc1 | 9.3% | 20µM*
COc1ccc(OC)c(-c2noc(N3CCN(c4cc(C)ccc4C)CC3)n2)c1 | -0.8% | ?
CCC1(C)Cc2c(sc3nc(SC)n(-c4ccc(C)cc4)c(=O)c23)CO1 (stereo not given) | 1.5% | -3.9%
Cc1cccc(CNC(=O)CN2C(=O)CCn3nc(-c4cn(C)c5ccccc45)cc32)c1 | -1.1% | -17.1%
CCOC(=O)c1ccc(Nc2nc3ccccc3n3c(C)nnc23)cc1 | 3.7% | -4.4%
NC(=O)c1c(NC(=O)c2cc(-c3ccc(F)cc3)on2)sc2c1CCCC2 | -0.8% | -13.4%

Quoted at random: 3 records from the list.
SMILES | PINK1 modulator | ClpP mod
Cc1cccc(C)c1Nc1c(-c2ccccc2F)nc2cccc(C)n12 | -0.8% | 31.6µM*
Cn1ccc2c(OCC(=O)Nc3ccc(OC(F)(F)F)cc3)cccc2c1=O | 2.1% | ?
COc1ccc(-c2noc(C3CC(=O)N(c4ccccc4)C3)n2)c(OC)c1 (stereo not given) | 0.2% | -0.4%

Further structures.
SMILES | PINK1 modulator | ClpP mod
COc1ccc(CC(=O)Nc2ccc3nc(Nc4ccc(OC)cc4)cc(C)c3c2)cc1 | 2.1% | 3.8%
COc1ccc(NC(=O)Cn2c(=O)cc(C)c3c(C)nn(-c4cccc(Cl)c4C)c32)cc1OC | 1.2% | 0.6%
CC(C)Oc1ccc(CNC(=O)CCCN2C(=O)c3cccnc3Oc3ccc(Cl)cc32)cc1 | -0.5% | -0.3%
COc1ccc(NC(=O)CSc2nc(-c3cccs3)cc(C(F)(F)F)n2)c(OC)c1 | 7.7% | -3.5%
CCOC(=O)C1CCN(c2csc3ccc(C)cc3c2=O)CC1 | 0.3% | -11.7%
COc1ccc(N2CCN(S(=O)(=O)c3csc(C(N)=O)c3)CC2)cc1 | 1.1% | 0.4%
O=C(CSc1oc(-c2cccs2)nc1S(=O)(=O)c1ccccc1)Nc1ccc(F)cc1 | 3.4% | 80.1%
COc1ccc(CNc2ncnc3nc[nH]c23)cc1 | 0.2%&-1.1% | 1.5%&-1.8%
Cn1nnc2c(N3CCN(Cc4ccccc4)CC3)ncnc21 | 0.6% | 0.4%
CS(=O)(=O)c1ccc(C(=O)OCC(=O)N2CC(=O)Nc3ccccc32)cc1[N+](=O)[O-] | 4.6% | -0.6%
CCOc1ccc(C2C(C(N)=O)=C(C)Nc3nc(-c4cccc(Cl)c4)nn32)cc1OC (stereo not given) | 7.4% | -8.8%
COc1cc(NC(=O)CCCN2C(=O)CCn3nc(-c4cn(C)c5ccccc45)cc32)cc(OC)c1 | 2.9% | -3.5%
CCOC(=O)c1cccc(NC(=O)c2ccc3nc(Cc4ccccc4)oc3c2)c1 | 1.6% | -28.1%
Cn1cc(-c2cc3n(n2)CCC(=O)N3CC(=O)NCc2ccccc2)c2ccccc21 | 0.8% | -20.9%
CCOc1ccc(NC(=O)c2sc(-n3nc(C)c(CCC(C)C)c3C)nc2C)cc1 | 2.0% | 63.5%
CC1(c2nnnn2-c2ccc3c(c2)OCCO3)CCC(=O)N1C1CC1 (stereo not given) | 0.2% | -4.0%
CCCCN1C(=O)C(=O)NC[C@H]1Cc1cccc2ccccc12 | -1.1% | -8.0%
Cc1cc(C(=O)NCc2ccccc2)c2c(C)nn(-c3cccc(Cl)c3C)c2n1 | 1.9% | -17.0%
COc1ccc(-n2ccnc(NCc3cccs3)c2=O)cc1 | -1.2% | -16.9%
Cc1ccn2c(=O)c(C(=O)Nc3ccc(F)c(C(F)(F)F)c3)cnc2c1 | -3.1% | -9.3%
Cc1cc(NS(=O)(=O)c2ccc(NC(=O)COc3c(C)ccc(C)c3C)cc2)nc(C)n1 | 0.8% | 1.2%
CCOc1ccc(S(=O)(=O)Nc2ccc(-c3ccc(N4CCCC4)nn3)cc2)cc1 | 2.5% | 0.7%
COc1ccc(-c2cnnn2-c2ccc(NC(=O)c3ccc(S(=O)(=O)N(C)C)cc3)cc2)cc1 | 0.4% | 1.1%
Cc1ccc2c(c1)N(C(=O)N1CCC(C(=O)NCc3cccs3)CC1)CC(C)O2 (stereo not given) | -0.6% | -4.1%
CCOc1cc(CNC(=O)c2cc(-c3ccc(Cl)s3)nc3ccccc23)ccc1OC | 0.8% | -28.0%

3 neighbouring records from above, for reference:
SMILES | PINK1 modulator | ClpP mod
Cn1ccc2c(OCC(=O)Nc3ccc(OC(F)(F)F)cc3)cccc2c1=O | 2.1% | ?
CCCN1CCN(CCCNC(=O)c2ccc3c(c2)sc2nc(-c4ccc(OCC)cc4)cn23)CC1 | -2.6% | ?
Cc1cccc(C)c1Nc1c(-c2ccccc2F)nc2cccc(C)n12 | -0.8% | 31.6µM*

Continuation:
SMILES | PINK1 modulator | ClpP mod
COc1ccccc1-c1nnc(C2CCN(C(=O)c3ccc(C)cc3)CC2)o1 | 0.8% | -8.1%
CCOc1ccc(NC(=O)NCCCN2CCN(c3ccc(F)cc3)CC2)cc1 | -0.1% | -1.6%
CCC(=O)N1c2ccc(S(=O)(=O)CCC(=O)NCc3cccc(OC)c3)cc2CC1C (stereo not given) | -0.5% | 2.4%
CC(=O)c1cccc(NC(=O)CCCSc2nc(-c3ccco3)cc(C(F)(F)F)n2)c1 | 9.9% | -1.9%
CCCn1cc(S(=O)(=O)c2ccc(CC)cc2)c(=O)c2ccccc21 | -0.5% | -4.0%
CCc1ccc(Sc2cc(C(=O)NC(C)CC)c3ccccc3n2)cc1 (stereo not given) | 2.2% | -10.6%
CCc1ccc(NC(=O)c2ccc(F)c(S(=O)(=O)N3CCC4(CC3)OCCO4)c2)cc1 | 1.1% | 0.7%
COc1ccc(/C=C/C(=O)Nc2ccc(Cl)c(Cl)c2)cc1OC | ? | ?
CCOC(=O)c1c(C)[nH]c(C)c1S(=O)(=O)NCC(=O)Nc1cc(C)ccc1OC | 4.6% | -1.7%
COc1ccccc1CNC(=O)CN1C(=O)CCn2nc(-c3ccccc3)cc21 | 0.2% | -0.6%
CC(=O)Nc1ccc2nc(SCCOc3ccccc3)sc2c1 | -1.2% | -0.5%
COc1ccc(C(=O)N2CC(=O)Nc3ccc(F)cc3C2c2ccc(F)cc2)c(OC)c1 (stereo not given) | -0.7% | -0.7%
COc1ccccc1N1CCN(c2ccc(=O)n(CC(=O)NCc3ccc(F)cc3)n2)CC1 | 0.2% | -1.5%
CCc1cnc2c(c1SCC(=O)c1ccccc1)c(=O)n(C)c(=O)n2C | 0.2% | 0.8%
Cc1cc(NC(=O)c2ccc3c(c2)OCCO3)cc(-c2nc3ccccc3o2)c1O | -0.4% | 0.2%
Cc1cc(C)cc(NC(=O)N2CCC(CN3CCCCCC3)CC2)c1 | -0.4% | 0.7%
Cn1cc(S(=O)(=O)N2CCCCCC2)cc1C(=O)N1CCN(c2cccc(C(F)(F)F)c2)CC1 | 3.8% | -2.8%
COc1cc(C(=O)Nc2cc3c(cc2C)n(C)c(=O)c(=O)n3C)cc(OC)c1OC | 0.1% | ?
CCCNC(=O)Cn1nc(-c2ccc(C)c(C)c2)c2cnc3ccc(OC)cc3c21 | 17.1% | -24.5%
Cc1nn(-c2ccccc2)c2sc(C(=O)Nc3cccc(Cl)c3)cc12 | 16.1% | -29.7%
CCCN(CCC)CCCNC(=O)c1sc2nc3n(c(=O)c2c1C)CCC3 | -1.0% | ?
Cn1nc(C(=O)NCc2ccc(F)cc2)c2c1-c1ccccc1SC2 | 0.2% | -0.1%
CCCN(C(=O)c1cc2c(=O)n(CC)c3ccccc3c2s1)c1ccccc1F | -0.3% | -3.2%
CCN1CCN(Cc2c(O)ccc3oc(C)c(C(=O)Nc4cccc(Cl)c4C)c23)CC1 | 0.0% | -3.7%
O=C(NC1CC(=O)N(c2ccc(F)cc2)C1)C1CCCC1 (stereo not given) | 1.0% | -1.1%

By substructure: the entries above with an NH in an aromatic ring (4)
SMILES | PINK1 modulator | ClpP mod
O=C(C1CCN(c2nc3ccccc3[nH]2)CC1)N1CCN(c2ccccc2)CC1 | 0.7% | -0.2%
Cc1ccc(-n2c3c(c(=O)[nH]c2=O)C(NC(=O)c2ccccc2F)(C(F)(F)F)C(=O)N3)cc1C (stereo not given) | -0.9% | -0.9%
COc1ccc(CNc2ncnc3nc[nH]c23)cc1 | 0.2%&-1.1% | 1.5%&-1.8%
CCOC(=O)c1c(C)[nH]c(C)c1S(=O)(=O)NCC(=O)Nc1cc(C)ccc1OC | 4.6% | -1.7%

The listing continues.
SMILES | PINK1 modulator | ClpP mod
Cc1cccn2c3c(c(=O)nc12)C(c1cccc(F)c1)CC(=O)N3 (stereo not given) | 0.1% | -9.4%
Cc1ccc(NC(=O)CN2C(=O)CSc3ccc(S(=O)(=O)N(C)C)cc32)c(C)c1 | -0.5% | -1.2%
CC1Cn2c(C(=O)NCCc3ccc(Cl)cc3)cc3cccc(c32)S1 (stereo not given) | 8.6% | 31.6µM*
Cc1ccc2onc(CC(=O)N3CCN(c4ccc(Cl)cc4)CC3)c2c1 | 3.1% | -1.4%
CCOC(=O)c1ccc(NC(=O)c2cn3c4c(ccc(Cl)c4c2=O)OC(C)C3)cc1 (stereo not given) | -1.0% | 0.5%
COc1ccc(-c2ccc(NS(=O)(=O)c3ccc(C(C)=O)cc3)cc2)nn1 | 0.9% | 0.2%
O=C1NC[C@H](CCCCN2C[C@H](Cc3ccccc3)N(Cc3ccccc3)C(=O)C2=O)N(CCc2ccc(O)cc2)C1=O | 0.0% | 1.0%
COc1ccc(CC(=O)Nc2sc3c(c2C(=O)Nc2ccc(C)cc2)CCCCC3)cc1 | 2.7% | -2.9%
COC(=O)c1cnc(NCc2ccc(F)cc2)c2ccccc12 | 1.6% | 4.3%
Cc1c(CCNC(=O)c2ccc(C(C)(C)C)cc2)sc2nc(-c3ccc(F)cc3)nn12 | 0.6% | -4.1%
CCc1ccccc1N1CC(c2nc3ccccc3n2CCCCOc2ccccc2)CC1=O (stereo not given) | 1.7% | -11.8%
Cc1c(Cl)cccc1Nc1nc2ccc(C(=O)c3ccccc3)cc2n2cnnc12 | 0.4% | 1.9%
O=S1(=O)CC(N2CCN(CCO)CC2)CN1Cc1cn(Cc2ccccc2)nn1 (stereo not given) | 0.6% | -1.4%
O=C1C2=C(Nc3ccccc3SC2c2ccc(C(F)(F)F)cc2)c2ccccc21 (stereo not given) | ? | -2.5%
O=C(NCc1ccccc1Cl)C1=Cc2cc(Br)ccc2OC1 | 0.7% | -1.4%
CC(C)c1ccc(C(=O)Nc2cc(-c3ccccc3F)nn2-c2ccccc2)cc1 | 0.3% | -16.0%
CCn1c(C)c(C)c2cc(C(=O)NCCc3cc(OC)ccc3OC)ccc21 | -1.2% | ?
CCOc1ccc(NC(=O)CC2C(=O)N(c3ccc(C)cc3)C(=O)N2CCC2=CCCCC2)cc1 (stereo not given) | 2.9% | 0.1%
O=C(CCCCCn1c(=O)c2sccc2n(Cc2ccc(Cl)cc2)c1=O)NCc1ccc2c(c1)OCO2 | -1.5% | ?

High-throughput results from PubChem.
